Source: PubChem (National Center for Advancing Translational Sciences (NCATS))
HTT promoter inh: inhibitors of huntingtin promoter activity; hit rate 0.93% among 48,000; Potency, µM (series often up to 57.5 µM), for the others: at the top dose activity change, negative = inhibition, actives largely listed as inhibitors; HEK293 HTT promoter firefly luciferase reporter (activity 0% = vehicle and -100% = no light), 24 h; AID 1508623; active means well fitted inhibition curve with a large enough effect; inconclusive means small, poorly fitted or top-dose-only effect; inactive means no such curve, though single readings can be large or run the other way; further: nearly all actives have a fitted effect of over 50% in size
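Quantitative HTS used concentration series of up to 57.5 uM final on HEK293 luciferase reporter cells, 24 h at 37 degrees C. Readout was Dual-Glo firefly luminescence.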
PMP22 txn: modulates PMP22 transcription in S16 Schwann cells; Potency, µM (doses to about 57.5 µM), without a hit: top-dose activity change, negative = inhibition, usual class: inhibitors; AID 1508649; S16 Pmp22-F2sN Schwann cells (luciferase reporters placed in the Pmp22 gene), FLuc/NLuc coincidence luminescence, 24 h; hit rate 2% among 43,000; active = clear falling dose curves in both reporters; inconclusive = both reporters move, but less clearly or upward; inactive = either reporter flat; the % is the NLuc reporter signal; further: on the % scale 0 is the no-effect control and ±100 the full control effect; some results filed as inactive show a strong effect at the top dose
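Transcriptional readout in edited S16(c9) cells: two luciferases reported from the Pmp22 locus, measured in turn after 24 h compound incubation.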
Numbers without * were called inactive; ? = inconclusive; · = no result given; [ ] = remark or other dose. Potency means the concentration at half of the fitted maximal effect.

Order of results: HTT promoter inh, PMP22 txn
CCOC(=O)c1ccc(CN(Cc2ccc(F)cc2)S(=O)(=O)c2ccc(F)c(C(=O)Nc3c(C)cccc3C)c2)cc1
  ?, 4%
COc1ccc(OC)c(NC(=O)c2cc(CN3CCCC3)on2)c1
  -3%, -6%
COC(=O)c1ccc(OCC2c3cc(OC)c(OC)cc3CCN2C(=O)Cc2ccc(OC)cc2)cc1 (centres undefined)
  -28%, -21%
CCc1ccc(CNC(=O)c2c(C)oc3ncnc(N4CCOCC4)c23)cc1
  ?, -9%
Cc1ccc(CN(C(=O)COc2ccc(C(C)C)cc2)C2CCS(=O)(=O)C2)o1 (centres undefined)
  ?, ?
COc1cccc(C(=O)Nc2ccc3oc(-c4cccc5c(Br)cccc45)nc3c2)c1
  2%, -3%
COc1ccc2nc3sc(C(=O)NCCc4ccc(Cl)cc4)cc3cc2c1
  -4%, -1%
NC(=O)c1ccccc1NC(=O)CN1c2ccccc2S(=O)(=O)c2ccccc21
  10%, -46%
Cc1ccc(C)c(CNC(=O)CN2C(=O)CSc3ccc(S(=O)(=O)N(C)C)cc32)c1
  -13%, -19%
CC(=O)N1CCCC1c1nc2ccccc2n1Cc1c(F)cccc1Cl (centres undefined)
  -11%, -1%

Further entries:
Order of results: HTT promoter inh, PMP22 txn
Cc1cccc(NC(=O)C(=O)NCCCN2CCOCC2)c1
  14%, -18%
CCc1ccc(OCC(=O)N(Cc2ccco2)Cc2ccccc2Cl)cc1
  ?, ?
COc1ccccc1CN1CCC(CNC(=O)c2cnn(-c3ccc(Cl)cc3)c2C2CCN(C(=O)OC(C)(C)C)CC2)CC1
  ?, ?
CCC(=O)C1=C(c2ccc(OC)c(OC)c2)N(C(=O)CC)n2c(nnc2-c2ccc(C)cc2)S1
  -5%, -8%
COc1cc(OC)c(NC(=O)Cn2cnc3sc(C)c(S(=O)(=O)N4CCN(C)CC4)c3c2=O)cc1Cl
  -13%, 15%
CC(=O)c1cccc(NC(=O)c2cc(C)nc3c2c(C)nn3-c2cccc(Cl)c2C)c1
  ?, ?
NS(=O)(=O)OC[C@@H]1C[C@@H](n2ccc3c(N[C@H]4CCc5ccccc54)ncnc32)C[C@H]1O
  -2%, ·
Cc1ccc(S(=O)(=O)c2[nH]c(-c3ccccc3)nc2SCCC(=O)O)cc1
  -6%, -26%
Cc1cc(C)c2c(=O)c3c(oc2c1)C(=O)N(Cc1ccc(F)cc1)C3c1cccc(O)c1 (centres undefined)
  ?, ?
Cc1ccc(CCNC(=O)c2c(C)oc3ncn(CC(C)C)c(=O)c23)cc1
  -9%, ?

(further entries)
Order of results: HTT promoter inh, PMP22 txn
CCOc1ccccc1NC(=O)c1c(C)cc(C)nc1SCC(=O)c1cccc(OC)c1
  -28%, -47%
COC(=O)c1c(-c2cccs2)csc1NC(=O)c1ccc(C(C)(C)C)cc1
  -13%, -5%
COc1ccc(-c2cc(C(F)(F)F)n3nc(C(=O)Nc4cc(Cl)cc(Cl)c4)cc3n2)cc1
  -15%[11.5 µM], 1%
Cc1ccc(-n2nnnc2CNC(=O)c2cc(C(F)(F)F)cc(C(F)(F)F)c2)cc1C
  ?, 11%
O=C(CSc1nc2c(c(=O)[nH]1)CCCC2)Nc1ccc(Br)cc1
  ?, ?
Cc1ccc(Cn2c(=O)n(Cc3ccco3)c(=O)c3sc4ccccc4c32)cc1
  -13%, -29%
Cc1cc(NC(=O)Nc2nc3c(s2)CCCCCC3)ccc1Br
  -6%, ?
COc1ccc(OCc2ccc(-c3nc(C#N)c(N4CCCCC4)o3)o2)cc1
  ?, -15%
COc1ccc(NC(=O)C(NS(=O)(=O)c2cccc3nsnc23)C(C)C)cc1OC (centres undefined)
  -9%[11.5 µM], ?
CSc1ncc(Cl)c(C(=O)Nc2ccc(S(=O)(=O)Nc3nccc(C)n3)cc2)n1
  -11%, 45%

(more compounds)
Order of results: HTT promoter inh, PMP22 txn
CCOc1ccc(N(CC)C(=O)c2nn(-c3ccc(OC)cc3)c(=O)c3c2c2ccccc2n3C)cc1
  ?, 19%
COc1ccc(CN(C(=O)COc2ccccc2OC)C2CCS(=O)(=O)C2)cc1 (centres undefined)
  -1%, 15%
CC(=O)Nc1ccc(NC(=O)c2nc(SCc3ccccc3C)ncc2Cl)cc1
  -7%, ?
Cc1ccc(-n2c(=O)c3ccccc3n(CC(=O)Nc3cccc(C(F)(F)F)c3)c2=O)cc1
  -27%, -14%
COCC(C)NC(=O)C1=CC(c2ccc3c(c2)OCO3)=NS(=O)(=O)N1C (centres undefined)
  -18%, 13%
Cc1ccc(-c2nc(SCC(=O)Nc3cc(C)on3)c3c(=O)n(C)c(=O)n(C)c3n2)cc1
  -6%, ?
CCOC(=O)c1c(S(=O)(=O)N2CCC(C(=O)N3CCN(c4ccc(F)cc4)CC3)CC2)c(C)n(C)c1C
  -12%, -12%
CCN(CC)c1ccc(NC(=O)C(Cc2ccccc2)NS(=O)(=O)c2ccc(Br)s2)c(C)c1 (centres undefined)
  -9%, -25%
COc1cccc(-c2nnc(SCC(=O)N3CCC(C)CC3)o2)c1
  3%, 1%
O=c1c2sc3ccccc3c2n(Cc2cccc(F)c2)c(=O)n1Cc1ccccc1
  -12%, 0%

A second format for 3 compounds above:
molecule	HTT promoter inh	PMP22 txn
CCN(CC)c1ccc(NC(=O)C(Cc2ccccc2)NS(=O)(=O)c2ccc(Br)s2)c(C)c1 (centres undefined)	-9%	-25%
COc1cccc(-c2nnc(SCC(=O)N3CCC(C)CC3)o2)c1	3%	1%
O=c1c2sc3ccccc3c2n(Cc2cccc(F)c2)c(=O)n1Cc1ccccc1	-12%	0%

New compounds follow:
Order of results: HTT promoter inh, PMP22 txn
C#C[C@]1(O)CC[C@H]2[C@@H]3CCc4cc(OC)ccc4[C@H]3CC[C@@]21C
  14%, ·
Cc1cccc(N(CC(N)=O)C2SC(=O)N(Cc3cccc(C(=O)O)c3)C2=O)c1 (centres undefined)
  -5%, -8%
O=S(=O)(Nc1cccc(Cl)c1)c1ccc2[nH]c3c(c2c1)CCCCCC3
  ?, ?
CCOc1ccc(NC(=O)c2cc(=O)c3cc(CC)ccc3o2)cc1
  8%[11.5 µM], -11%
COC(=O)c1cc(NC(=O)CCc2c(C)nc3cc(-c4ccccc4)nn3c2C)cc(C(=O)OC)c1
  -25%, 6%
Cc1cc(C)c(Cn2c3ccccc3c3cnn(CC(=O)NC4CCCCCC4)c(=O)c32)c(C)c1
  -11%, -2%
Cc1ccc(C)c(NS(=O)(=O)c2cc3c(cc2C)n(C)c(=O)c(=O)n3C)c1
  -8%, ?
COCCCNC(=O)C(=O)NCC(c1ccc2c(c1)OCO2)N1CCOCC1 (centres undefined)
  -7%, -17%
Cc1ccc(NCc2cccn2-c2nnc(N3CCCCCC3)s2)cc1
  7.9µM*, ?
COc1ccc(NC(=O)c2cc(S(=O)(=O)N3CCCC3)ccc2OC)cc1
  -11%, 1%

Other structures follow.
Order of results: HTT promoter inh, PMP22 txn
CCOC(=O)c1cccc(-n2nnc3c(sc4nc(C)c(Br)c(C)c43)c2=O)c1
  0%, -4%
COc1cccc(-c2cc(C(F)(F)F)nc(NCCc3ccc(OC)c(OC)c3)n2)c1
  -27%, 6%
COC(=O)c1ccc(CSc2nc3c([nH]c4ccccc43)c(=O)n2-c2ccc(Cl)cc2)o1
  ?, ?
Oc1ccccc1Nc1nc2ccccc2n2nnnc12
  27%, ?
COc1ccc(N(C)S(=O)(=O)c2ccc3c(c2)CCN3C(=O)CCC(=O)O)cc1
  -12%, 1%
CCCCN1CCCc2cc(CN(CCCN3CCOCC3)C(=O)Nc3ccc(OCC)cc3)ccc21
  6%, ?
CCc1nn(CC(=O)Nc2cc(C)cc(C)c2)c(=O)c2cc3sccc3n12
  -19%, ?
COc1ccc(CNC(=O)C2CCN(S(=O)(=O)c3ccc(C)cc3)CC2)cc1
  -22%, 10%
CC(C)Nc1ccc(-c2nc(-c3ccccn3)no2)cc1[N+](=O)[O-]
  14%, 0%
COc1ccccc1CNC(=O)CSc1ncc(S(=O)(=O)c2ccc(C)c(Cl)c2)c(=O)[nH]1
  -15%, -27%

(next part)
Order of results: HTT promoter inh, PMP22 txn
O=C(Nc1sc2c(c1C(=O)NCc1ccccc1)CCCC2)c1cc(=O)c2ccccc2o1
  -14%, -1%
Cc1cccc(N2C(=O)CS(=O)(=O)C23C(=O)N(C)c2ccccc23)c1 (centres undefined)
  -17%, -6%
Cc1ccc(NC(=O)Cn2cc(C(=O)C3CCCCC3)c3ccccc32)cc1
  ?, -8%
CCCN(CCC)CCCNC(=O)c1cc2c(=O)n(C)c3ccccc3c2s1
  19%, ?
CCC(=O)Nc1ccccc1-c1nc2ccccc2n(C(CC)C(=O)Nc2cccc(Cl)c2)c1=O (centres undefined)
  ?, ?
Cc1ccc(NC(=O)/C(C#N)=C\c2ccc(-c3ccc(Cl)cc3)o2)c(C)c1
  0%, ?
CCOC(=O)c1c(C)sc(-c2c(-c3ccc(OC)c(F)c3)[nH]c3[nH]c(=O)[nH]c(=O)c23)c1O
  -3%, ?
COc1ccc(-n2ncc(C(=O)N3CCN(Cc4ccccc4)CC3)c2C2CCN(C(=O)OC(C)(C)C)CC2)cc1
  -7%, ?
CCN(CC)CCCNC(=O)c1cn(CC)c2ccc(S(=O)(=O)N3CCc4ccccc4C3)cc2c1=O
  -4%, ?
COc1ccc(OCCn2nnc3sc4c(c3c2=O)CCCC4)cc1
  8%, -3%

Next results
Order of results: HTT promoter inh, PMP22 txn
CCn1c(CC2C(=O)N(C)c3ccccc32)nc2ccccc2c1=O (centres undefined)
  -20%, -24%
CC(=O)N1CCc2cc(Br)cc(S(=O)(=O)CCC(=O)NCCc3ccc(Cl)cc3)c21
  -13%, -6%
CC(C)CCNc1ncnc2c1cnn2-c1cccc(Cl)c1
  -17%, ?
COc1ccc(C)cc1NC(=O)c1noc2c1CSc1ccccc1-2
  -14%, 0%
CCOc1cc(C2c3c(oc4ccc(F)cc4c3=O)C(=O)N2Cc2ccco2)ccc1O (centres undefined)
  -11%, 0%
CCN1CCN(c2cc(C)c3cc(NC(=O)/C=C/c4cccc(OC)c4OC)ccc3n2)CC1
  -14%, -18%
CCn1c(=O)c2sccc2n2c(CCC(=O)N3CCN(c4ccccc4OC)CC3)nnc12
  4%, -2%
CNC(=O)c1cccc(-n2c(C)nc3cccnc32)c1C
  3%, 1%
COc1ccc(NC(=O)c2ccc3c(c2)sc2nc(-c4ccc(OC)cc4)cn23)cc1
  7%, 0%
CCCCC(C=O)NC(=O)C(CC(C)C)NC(=O)OCc1ccccc1 (centres undefined)
  -23%, ·

Additional compounds follow:
Order of results: HTT promoter inh, PMP22 txn
Cc1ccc(N(C)C(=O)c2noc3c2CCCCC3)cc1C
  -18%, -3%
COC(=O)c1c(NC(=O)COc2cc(C)c(Cl)c(C)c2)sc2c1CCCC2
  -3%, -9%
Cc1ccc(-c2nnc3c4ccccc4c(-c4ccccc4)nn23)cc1
  -4%, 0%
O=C(NCCc1ccccc1)C(=O)NCC(c1ccc2c(c1)OCO2)N1CCOCC1 (centres undefined)
  -14%, 26%
Cc1ccccc1CSc1nnc2[nH]c(=O)cc(C)n12
  -11%, -9%
CCCOc1ccc(OC(=O)c2ccc(-c3ccc(CCC)cn3)cc2)cc1
  3%, -25%
O=c1oc2ccc3ccccc3c2cc1-c1nnc(Nc2ccccc2F)s1
  5%, -2%
Cc1ccccc1CSCc1ccc(C(=O)NCCc2ccccc2)o1
  -14%, -32%
CCCCCn1c(=O)[nH]c2cc(C(=O)N3CCN(c4cccc(OC)c4)CC3)ccc2c1=O
  ?, -14%
CCOC(=O)C1=C(CN2CCN(c3ccc(C)cc3C)CC2)NC(=O)NC1c1ccc(OC)cc1 (centres undefined)
  28µM*, ?

(list continues)
Order of results: HTT promoter inh, PMP22 txn
CCN(CC)CCNC(=O)C(=O)NCC(c1ccc2c(c1)OCO2)N1CCOCC1 (centres undefined)
  -6%, -19%
O=C(Nc1nc2ccc(S(=O)(=O)N3CCCC3)cc2s1)c1ccc(F)cc1
  -29%, ?
COc1ccc(OC)c(NC(=O)c2cc(S(=O)(=O)NCCc3ccc(Cl)cc3)ccc2F)c1
  ?, ?
COCCn1c(=O)[nH]c2cc(C(=O)N3CCN(c4ccccc4)CC3)ccc2c1=O
  -9%, 10%
CCc1nn2c(=O)cc(COC(=O)c3cccc(NC(=O)COc4ccccc4)c3)nc2s1
  20%, -6%
CC(=O)Nc1ccccc1-c1nc2ccccc2n(CC(=O)Nc2ccc(C)c(Cl)c2)c1=O
  -3%, 5%
COc1ccc(N2CCN(C(=O)c3nc(SC)ncc3Cl)CC2)cc1
  -21%, -6%
Brc1ccc(Nc2c3c(nc4nncn24)CCC3)cc1
  ?, ?
CCN(CC)c1cc(C)c2cc(NC(=O)c3ccccc3Cl)ccc2n1
  -13%, ?
Cc1ccc(S(=O)(=O)n2nc(C)c(S(=O)(=O)N3CCC(C)CC3)c2C)cc1
  -8%, 0%
O=C(CSc1nc(=O)n(CCN2CCOCC2)c2c1CCC2)Nc1ccccc1
  -16%, -3%

Reformatted: 4 of the compounds above
| compound | HTT promoter inh | PMP22 txn |
| --- | --- | --- |
| CCN(CC)CCNC(=O)C(=O)NCC(c1ccc2c(c1)OCO2)N1CCOCC1 (centres undefined) | -6% | -19% |
| Brc1ccc(Nc2c3c(nc4nncn24)CCC3)cc1 | ? | ? |
| O=C(Nc1nc2ccc(S(=O)(=O)N3CCCC3)cc2s1)c1ccc(F)cc1 | -29% | ? |
| COCCn1c(=O)[nH]c2cc(C(=O)N3CCN(c4ccccc4)CC3)ccc2c1=O | -9% | 10% |
